Mtb bLac sens – beta-lactam sensitization of Mtb H37Rv; M. tuberculosis H37Rv growth with meropenem, percent inhibition; hits of this screen are not shown here; inhibition, % at 25 µM; 330,000 tested, 0.27% active;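 active = about 74% or more and at least 40 points above the plate without the antibiotic, then above 30% in a dose series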;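 note: growth measured after seven days incubation then overnight dye step; 0% = bacteria only wells and 100% = bacteria with antibiotic; twin plates without the antibiotic show which effects depend on it; some results filed as inactive read as strong as hits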
An asterisk follows results filed as active.

SMILES	Mtb bLac sens
CSc1ccccc1C(=O)NC1CCSc2ccccc21 (centres undefined)	97
COc1cccc(-c2ccc3c(c2)S(=O)(=O)c2cccc(C(=O)O)c2C3=O)c1OC	-6
CC(C)(C)OC(=O)C[C@@H]1C/C=C\C[C@H](CC(=O)N[C@H](CO)Cc2ccccc2)C(=O)N[C@H](Cc2ccccc2)COC1=O	-5
O=C(NC1(Cc2ccccc2)CCN(Cc2ccc(-c3ccccc3)cc2)C1=O)c1ccccc1 (centres undefined)	0
COc1ccc(S(=O)(=O)N2CCOCC2)cc1NC(=O)Cc1ccc2c(c1)OCCO2	-3
O=C(CCC(=O)c1cccs1)NCC(c1ccc(F)cc1)N1CCOCC1 (centres undefined)	-9
CC(NC(=O)COC(=O)c1cc(=O)c2ccccc2o1)c1ccccc1 (centres undefined)	6
COc1ccc(Cl)cc1-c1nc(SCC(=O)NCC2CCCO2)n[nH]1 (centres undefined)	5
COCc1cc(C)nc2sc(C(=O)Nc3ccccc3OC)c(N)c12	4
Cc1sc2nc(CSCC(=O)Nc3ccc(C(F)(F)F)cc3)[nH]c(=O)c2c1C	1
Cc1ccc(NC(=O)C/C(N)=N/OC(=O)Nc2cccc(C)c2)cc1	-3
CCn1c(C)nc2cc(C(=O)NN=C(C)c3ccc(C#N)cc3)ccc21	-5
CCOC(=O)[C@H]1[C@H]2COc3cc(OC)ccc3[C@@H]2N2C(=O)[C@@H](CO)NC(=O)[C@@]12C	-5
O=C(COC(=O)COc1ccc2c(c1)CCC2)Nc1ccccc1	1
CC(Oc1cccc(Cl)c1)C(=O)Nc1ccc(S(=O)(=O)N(C)C2CCN(C)CC2)cc1 (centres undefined)	-7
COc1ccccc1NC(=O)COC(=O)c1c[nH]c2ccccc12	-6
Cn1nc(C(=O)NNC(=O)c2ccccc2F)c2ccccc2c1=O	-5
CCCCn1c(N)c(N(CCC(C)C)C(=O)CCN2C(=O)C3CC=CCC3C2=O)c(=O)[nH]c1=O (centres undefined)	3
O=C(c1cccc(S(=O)(=O)N2CCc3ccccc32)c1)N1CCN(CCO)CC1	3
Cc1cccc(CSc2nc3ccccc3c(=O)n2C)c1	-6
O=C(Nc1cc(S(=O)(=O)N2CCOCC2)ccc1N1CCOCC1)c1ccccc1Cl	-11
O=C(NCC1(N2CCOCC2)CCCCC1)c1cccc(S(=O)(=O)Nc2ccc(F)cc2)c1	6
COCCNC(=O)C1CCN(C(=O)C2CC(=O)N(c3ccc(C)cc3)C2)CC1 (centres undefined)	-8
CCN(C[C@H]1N[C@@](Cc2ccccc2)(C(=O)OC)[C@H]2C(=O)N(C)C(=O)[C@@H]12)C(=O)c1ccccc1	-2
CS(=O)(=O)c1ccc(Cl)c(NC(=O)CN2CCCC2c2ccc3c(c2)OCCCO3)c1 (centres undefined)	-6
C[C@H]1COC(=O)[C@@H](CC(=O)OC(C)(C)C)C/C=C\C[C@@H](CC(=O)N[C@H](CO)Cc2ccccc2)C(=O)N1	3
CN(CC(=O)Nc1cccc(F)c1)CC(=O)N(C)c1c(N)n(Cc2ccccc2)c(=O)[nH]c1=O	-7
O=C(Nc1cccc(S(=O)(=O)N2CCCCC2)c1)C1CCN(C(=O)c2ccc(Cl)cc2)CC1	14
NC(=O)c1cc([N+](=O)[O-])c(Cl)cc1NCc1ccccn1	-14
CCCCN(CC)CCNC(=O)Cn1cnc2sc(C)c(S(=O)(=O)N3CCC(C)CC3)c2c1=O	-2
COc1ccccc1OCC(=O)OCc1cc(-c2ccco2)on1	1
CC1(NC(=O)CSc2nnc(-c3ccco3)n2Cc2ccccc2)CCS(=O)(=O)C1 (centres undefined)	-2
Cc1ccc(S(=O)(=O)N2CCCCC2)cc1NC(=O)COC(=O)C1(C)CC1(Cl)Cl (centres undefined)	-12
CN(CC(=O)Nc1ccc(OC(F)(F)F)cc1)C(=O)Cc1cccs1	-10
Cc1cc(Cn2nc(C(=O)NCc3cccs3)cc2-c2ccccc2)on1	4
O=C(NNC(=O)C1CCN(C(=O)Nc2ccccc2)CC1)c1ccc([N+](=O)[O-])cc1	4
COc1c2ccc(OCC/C(C)=C/C(=O)C=C(C)C)cc2nc2occc12	1
CC1CCCC(NC(=O)COC(=O)COc2ccc(C#N)cc2)C1C (centres undefined)	0
COCCn1c(SCC(=O)Nc2cccnc2Cl)nc2ccccc2c1=O	-5
C=CC[N+](C)(C)c1ccc(CCC(=O)CCc2ccc([N+](C)(C)CC=C)cc2)cc1	-3
Cc1ccc2c(c1)-n1c(nc3ccc(C)cc3c1=O)C(Cc1ccccc1)NC2=O (centres undefined)	-3
COc1cc(C(=O)NC2CCN(C)CC2)ccc1Nc1ncc2c(n1)N(C1CCC(O)CC1)CCC(=O)N2C (centres undefined)	3
COc1cc2c(cc1OC)CN(C(=O)c1cccc(S(=O)(=O)N3CCc4ccccc43)c1)CC2	0
COc1ccccc1NC(=O)COC(=O)C1CCCC1	6
C#CCOCCOCCOCCNc1nc(N2CCN(C(=O)CCCCCCCCCCNC(=O)[C@@H]([C@H](C)O)n3cc(C)nn3)CC2)nc(N2CCN(C(=O)CCCCCCCCCCNC(=O)[C@@H]([C@H](C)O)n3cc(C)nn3)CC2)n1	68
O=C(CN1CCN(CC(=O)Nc2ccc(F)cc2)CC1)NCC1(N2CCOCC2)CCCCC1	-7
O=C(COC(=O)c1ccc(O)cc1)Nc1cc(S(=O)(=O)N2CCOCC2)ccc1Cl	0
COc1ccc(NC(=O)C2CC2)cc1S(=O)(=O)N1CCOCC1	-7
COc1ccc(CN2CCN(CC(=O)Nc3ccccc3C(=O)NC3CC3)CC2)cc1F	-3
COc1ccc(S(=O)(=O)NCCCn2ccnc2)cc1C(C)(C)C	-2
O=C(CN1C(=O)CCOc2ccccc21)Nc1cccc(S(=O)(=O)N2CCOCC2)c1	-3
COc1ccc(C(=O)COC(=O)c2sc(C)nc2C)cc1OC	2
C#CCOCCOCCOCCNc1nc(N2CCN(C(=O)CCCCCCCCCCNC(=O)[C@H](CCCCN)n3cc(C)nn3)CC2)nc(N2CCN(C(=O)CCCCCCCCCCNC(=O)[C@@H]([C@H](C)CC)n3cc(CCCCCN)nn3)CC2)n1	73
O=C(COC(=O)c1ccccc1O)Nc1ccc2ccccc2c1	-8
CC(C)c1ccc(S(=O)(=O)N2CCN(C(=O)CCNC(=O)Nc3ccccc3)CC2)cc1	-2
Cc1ccc(S(=O)(=O)N(C)CC(=O)NCC(c2ccc(F)cc2)N2CCOCC2)cc1 (centres undefined)	3
COc1ccc(Br)cc1CN(C)C(=O)Cc1ccc(OC)c(S(=O)(=O)N2CCOCC2)c1	-3
Cc1ccc(S(=O)(=O)N2CCOCC2)cc1C(=O)N1CCN(S(=O)(=O)c2cccc(F)c2)CC1	-6
O=C(COC(=O)COc1ccc(Br)cc1)NCc1ccc2c(c1)OCO2	3
CC(C)c1nc2oc3c(NCc4ccccn4)ncnc3c2c2c1COC(C)(C)C2	-3
Next part
SMILES	Mtb bLac sens
CCOC(=O)CCCCCC(=O)Nc1ccc2c(c1)CC(=O)N([C@@H](C)CO)C[C@H](C)[C@@H](CN(C)Cc1ccccc1)O2	2
Cn1ccnc1SCC(=O)Nc1ccc(SC(F)F)cc1	-4
COc1ccc(S(=O)(=O)N2CCN(C(=O)CN3C(=O)NC(C)(C)C3=O)CC2)cc1	5
CCN(CC)C(=O)[C@H]1CC(CC(=O)NCCN2CCOCC2)C(=O)N2CCc3c([nH]c4ccccc34)[C@]12C (some centres undefined)	-7
COc1ccc2sc(-c3ccc(N(C)C)cc3)c(C#CCO)c2c1	85
O=C(NCC(c1ccco1)N1CCCCC1)c1ccc([N+](=O)[O-])s1 (centres undefined)	0
CCCOc1ccc(C(=O)CCC(=O)Nc2ccc(N3CCN(C)CC3)cc2)cc1	1
Cc1ccc(C(=O)NNC(=O)COc2ccc(Cl)cc2C)o1	1
CC(C)(CNC(=O)CNC(=O)C1CCCCC1)N1CCOCC1	9
O=C(CN1C(=O)NC(c2ccccc2)(c2ccccc2)C1=O)NC1CCCC1	-2
Cc1ccc2c(c1)CCCN2CC(=O)Nc1cc(S(=O)(=O)N2CCCC2)ccc1Cl	-7
CCN(C[C@H]1N[C@@](Cc2ccccc2)(C(=O)OC)[C@H]2C(=O)N(Cc3ccccc3)C(=O)[C@@H]12)S(=O)(=O)c1ccccc1	-8

Copied from the results shown, 15 compounds:
SMILES	Mtb bLac sens
Cc1ccc(S(=O)(=O)N2CCOCC2)cc1C(=O)N1CCN(S(=O)(=O)c2cccc(F)c2)CC1	-6
O=C(COC(=O)COc1ccc(Br)cc1)NCc1ccc2c(c1)OCO2	3
CC(C)c1nc2oc3c(NCc4ccccn4)ncnc3c2c2c1COC(C)(C)C2	-3
CCOC(=O)CCCCCC(=O)Nc1ccc2c(c1)CC(=O)N([C@@H](C)CO)C[C@H](C)[C@@H](CN(C)Cc1ccccc1)O2	2
Cn1ccnc1SCC(=O)Nc1ccc(SC(F)F)cc1	-4
COc1ccc(S(=O)(=O)N2CCN(C(=O)CN3C(=O)NC(C)(C)C3=O)CC2)cc1	5
CCN(CC)C(=O)[C@H]1CC(CC(=O)NCCN2CCOCC2)C(=O)N2CCc3c([nH]c4ccccc34)[C@]12C (some centres undefined)	-7
COc1ccc2sc(-c3ccc(N(C)C)cc3)c(C#CCO)c2c1	85
O=C(NCC(c1ccco1)N1CCCCC1)c1ccc([N+](=O)[O-])s1 (centres undefined)	0
CCCOc1ccc(C(=O)CCC(=O)Nc2ccc(N3CCN(C)CC3)cc2)cc1	1
Cc1ccc(C(=O)NNC(=O)COc2ccc(Cl)cc2C)o1	1
CC(C)(CNC(=O)CNC(=O)C1CCCCC1)N1CCOCC1	9
O=C(CN1C(=O)NC(c2ccccc2)(c2ccccc2)C1=O)NC1CCCC1	-2
Cc1ccc2c(c1)CCCN2CC(=O)Nc1cc(S(=O)(=O)N2CCCC2)ccc1Cl	-7
CCN(C[C@H]1N[C@@](Cc2ccccc2)(C(=O)OC)[C@H]2C(=O)N(Cc3ccccc3)C(=O)[C@@H]12)S(=O)(=O)c1ccccc1	-8

Some of the entries so far, with bars between the fields:
Molecule | Mtb bLac sens
Cc1ccc2c(c1)CCCN2CC(=O)Nc1cc(S(=O)(=O)N2CCCC2)ccc1Cl | -7
CCN(C[C@H]1N[C@@](Cc2ccccc2)(C(=O)OC)[C@H]2C(=O)N(Cc3ccccc3)C(=O)[C@@H]12)S(=O)(=O)c1ccccc1 | -8

Continuation.
SMILES	Mtb bLac sens
COc1ccc(S(=O)(=O)Nc2ccc3c(c2)C(=O)N([C@@H](C)CO)C[C@H](C)[C@H](CN(C)S(=O)(=O)c2ccc(F)cc2)O3)cc1	0
CS(=O)(=O)N(CC(=O)N1CCCCC1)Cc1ccccc1	-8
COC(=O)C1=C(c2ccc(-c3ccccc3)c(F)c2)C[C@@H]2CC[C@H]1N2C(=O)N1CCCC1	3
CCc1ccccc1C1=CC(=O)C[C@H](c2ccc(OC)cc2)C1	11
CCOc1ncccc1C(=O)NCCc1ccc(S(N)(=O)=O)cc1	0
Cc1cccc(NC(=O)CN(CC2CCCO2)C(=O)c2cc(S(=O)(=O)N(C)C)ccc2F)c1C (centres undefined)	-4
O=C(C[C@H]1C/C=C\C[C@H](NC(=O)OCC2c3ccccc3-c3ccccc32)C(=O)OC[C@H](Cc2ccccc2)NC1=O)N[C@H](CO)Cc1ccccc1	-2
O=C(OCc1c(-c2ccccc2)ncc2ccccc12)N1CCOCC1	4
Cc1cccc(C)c1NC(=O)CSc1n[nH]c(=O)n1C1CC1	-5
Cc1ccc(NC(=O)CSc2nc(N)cc(=O)[nH]2)cc1S(=O)(=O)N1CCCCC1	-9
CC1O[C@H](OC2C(COC3OC(CO)C(O)[C@H](O)C3O)OC(OC3CC[C@]4(C)C(CC[C@@]5(C)[C@@H]4C=C[C@]46OC[C@@]7(CCC(C)(C)C[C@H]74)C(O)C[C@@]56C)C3(C)C)C(O)C2O)C(O)C(O)C1O (some centres undefined)	7
O=C(Nc1ccnn1C1CCN(Cc2ccccc2OCCO)CC1)c1cccc(F)c1	-9
Cc1ccc(S(=O)(=O)NCCc2nnc(SCc3cccnc3)n2C)cc1	-6
O=C(COC(=O)/C=C/c1ccc(F)cc1)Nc1ccc(S(=O)(=O)N2CCOCC2)cc1	2
CN(CC(=O)Nc1cccc(F)c1)C(=O)c1ccc(OCc2ccccc2)cc1	-4
COc1ccc([C@H]2CC(=O)C=C(c3cc4ccccc4s3)C2)cc1	3
O=C(OCc1cc(=O)n2ccsc2n1)c1ccccc1O	-4
CC(=O)NS(=O)(=O)c1ccc(NC(=O)c2ccc3c(c2)NC(=O)CS3)cc1	-1
CCOc1ccc(C(CC(=O)O)NC(=O)C(c2ccccc2)c2ccccc2)cc1OC (centres undefined)	0
C[C@H](CO)N1C[C@H](C)[C@@H](CN(C)CC2CCCCC2)Oc2c(NS(=O)(=O)c3ccccc3)cccc2C1=O	2
O=C(Cn1nnc(-c2ccccc2Cl)n1)Nc1cccc(S(=O)(=O)N2CCCC2)c1	1
CN1CCN(CC(O)COc2ccccc2)CC1 (centres undefined)	-8
Cc1c(C(=O)OCc2nnc(-c3ccccc3)o2)oc2ccccc12	4
O=C(Nc1ccc(Br)cn1)c1cccc(S(=O)(=O)N2CCCC2)c1	-2
O=C(CCNC(=O)c1ccc(Cl)cc1)NCCCN1CCOCC1	-2
CC1(NC(=O)CN2CCN(c3cnn(-c4ccccc4)c(=O)c3Cl)CC2)CCS(=O)(=O)C1 (centres undefined)	0
CC(OC(=O)c1cc(S(=O)(=O)N2CCOCC2)ccc1F)C(=O)NCC1CCCCC1 (centres undefined)	0
COC(=O)c1ccc2[nH]c(C3(O)CCCCC3)c(C)c2c1	-3
COc1cccc(CC(=O)OCC(=O)NNC(=O)c2ccc(Br)cc2)c1	0
CCOC(=O)c1cc(-c2ccccc2C)nn1Cc1cc(CC)no1	-1
CC(=NNC(=O)c1ccc(NS(=O)(=O)c2cccs2)cc1)c1ccc(OCC(N)=O)cc1	5
O=C(CSc1nc2cc(Cl)ccc2s1)NCC1CCCO1 (centres undefined)	25
CCOC(=O)[C@H]1[C@H]2COc3ccc(Br)cc3[C@H]2N2C(=O)CNC(=O)[C@@]12C	2

Screening results deposited in PubChem BioAssay by Southern Research Specialized Biocontainment Screening Center.

Some of the compounds tested. The share of hits here may be higher or lower than overall.
